Compound activity (PubChem)
RE007 growth inh = less growth of the S. pombe RE007 Vpr strain; AID 651644; Potency, µM (titrated, usually from 92.2 µM), for the others: at the top dose activity change, negative = less growth; actives 0.21% (n = 360,000); S. pombe RE007 Vpr strain, BacTiter-Glo ATP luminescence, 24 h; control for the full effect not named in the record; active = well fitted falling curve with a large enough effect; inconclusive = small, poorly fitted or top-dose-only effect; inactive = no such curve, though single readings can be large or run the other way;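 note: % is set by controls: 0 for no effect and ±100 for the full control effect; nearly all actives have a fitted effect of over 50% in size; the assay follows cell death caused by Vpr and the record does not say whether a fall means rescue or toxicity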
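Fission yeast strain RE007, carrying one chromosomally integrated HIV-1 vpr copy, was seeded at OD 0.01 in PMG+AL medium with 23 nL pinned compound. After 24 h at 30 °C and 99% humidity, viability was read by BacTiter-Glo luminescence.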
Cruzain noTriton = inhibitors of Trypanosoma cruzi cruzain without detergent. purified cruzain, Z-FR-AMC fluorescence, no detergent. P25779. actives 2.3% (n = 200,000). Potency, µM, for the others: max response, negative = inhibition, usual class: inhibitors;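 note: plate controls were enzyme without inhibitor for no effect and buffer without enzyme for full effect; nearly all actives have a fitted effect of over 40% in size; top concentration of the series not given in the record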
Target sequence (P25779 123-467 limits assumed): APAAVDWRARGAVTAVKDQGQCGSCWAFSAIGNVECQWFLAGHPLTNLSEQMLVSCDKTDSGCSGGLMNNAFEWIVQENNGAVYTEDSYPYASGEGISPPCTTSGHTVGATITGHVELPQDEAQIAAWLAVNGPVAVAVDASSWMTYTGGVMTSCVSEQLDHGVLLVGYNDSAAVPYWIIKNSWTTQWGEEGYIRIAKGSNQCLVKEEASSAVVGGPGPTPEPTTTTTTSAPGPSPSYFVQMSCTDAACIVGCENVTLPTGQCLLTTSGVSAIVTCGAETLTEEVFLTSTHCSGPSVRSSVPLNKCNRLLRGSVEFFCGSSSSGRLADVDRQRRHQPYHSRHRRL
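Detergent-free condition (0.00005% Triton X-100) in acetate buffer pH 5.5 with DTT. 1.5 nM enzyme and compound were pre-mixed 15 min, then 2 uM Z-FR-AMC substrate added; reaction progress from fluorescence change between first and third reads (60 s).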
Lassa entry inh = inhibitors of Lassa virus binding or cell entry; Lassa virus pseudotype entry inhibition, cell reporter; control for the full effect not named in the record; Potency, µM (series often up to 37.9 µM), for the others: top-dose activity change, negative = inhibition, usual class: inhibitors; actives 1.2% (n = 300,000); AID 540256; active means well fitted inhibition curve with a large enough effect; inconclusive means small, poorly fitted or top-dose-only effect, or effect the other way; inactive means flat fitted curve, though single readings scatter; tested in HEK293 cells; note: % is set by controls: 0 for no effect and ±100 for the full control effect; nearly all actives have a fitted effect of over 50% in size; luciferase read-out
Cruzain Triton = blocks cruzain activity in presence of Triton detergent; P25779; Potency, µM, for the others: max response, negative = inhibition, most hits filed as inhibitors; actives 0.43% (n = 200,000); AID 1478; purified cruzain, Z-FR-AMC fluorescence, 0.01% Triton;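 note: plate controls were neutral wells for no effect and buffer without enzyme for full effect; nearly all actives have a fitted effect of over 40% in size; top concentration of the series not given in the record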
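Cysteine protease activity tested under reducing, mildly acidic conditions (100 mM sodium acetate pH 5.5, 5 mM DTT) plus 0.01% Triton X-100. Cruzain 1.5 nM; substrate Z-FR-AMC 2 uM; 15 min compound preincubation at room temperature.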
NS1 function inh = inhibitors of influenza NS1 protein function. S. cerevisiae slowed by influenza A NS1, growth recovery by OD600. Potency, µM (doses to about 46.1 µM), inactives show top-dose activity, positive = more growth. actives 0.4% (n = 270,000); active means well fitted rising curve with a large enough effect; inconclusive means small, poorly fitted or top-dose-only effect; inactive means no such curve, though single readings can be large or run the other way; note: nearly all actives have a fitted effect of over 50% in size
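Recovery from NS1-induced slow growth read by OD600 in budding yeast switched to galactose assay medium (pH 6.0, -URA) at 1:100 dilution. Compound 23 nl per well; the matching strain lacking NS1 serves as control.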
MARV entry inh = Marburg virus entry inhibition; Marburg virus pseudotyped entry inhibition, cell reporter; control for the full effect not named in the record; about a third of the inactives were read at about 46 µM; Potency, µM (series often up to 37.8 µM), for inactives: top-dose activity change, negative = inhibition, hits mostly inhibitors; actives 1.8% (n = 300,000); active = well fitted inhibition curve with a large enough effect; inconclusive = small, poorly fitted or top-dose-only effect, or effect the other way; inactive = flat fitted curve, though single readings scatter; tested in HEK293 cells; about a fifth of its hits are not listed in these tables; note: % is set by controls: 0 for no effect and ±100 for the full control effect; luciferase read-out
SARS PLP yeast = inhibitors of SARS-CoV papain-like protease in yeast | S. cerevisiae expressing SARS-CoV PLpro, growth rescue; control for the full effect not named in the record | actives 0.19% (n = 330,000) | Potency, µM (doses to about 32.9 µM), inactives show at the top dose activity, positive = growth rescue | AID 485353; active means well fitted rising curve with a large enough effect; inconclusive means small, poorly fitted or top-dose-only effect; inactive means no such curve, though single readings can be large or run the other way; note: 0% is about no effect; nearly all actives have a fitted effect of over 55% in size; growth read by luminescence after 48 h
StopGo reporter = FMDV 2A StopGo reporter, luciferase signal. actives 1.2% (n = 410,000). AID 1159524. Potency, µM (top dose mostly 57.9 µM), for inactives: top-dose signal change, negative = less light. human cells with a luciferase reporter of 2A StopGo recoding; control for the full effect not named in the record; active = well fitted falling curve with a large enough effect; inconclusive = small, poorly fitted or top-dose-only effect; inactive = no such curve, though single readings can be large or run the other way; tested in HEK293T cells; note: % is set by controls: 0 for no effect and ±100 for the full control effect; nearly all actives have a fitted effect of over 45% in size; luciferase light after 4 h
* = called active by the depositor; u = inconclusive; x = not tested or not shown; & = joins results of further samples; [ ] = another dose, or the depositor's remark. Unless noted, calls come from the whole dose curve; as a rule, active = well fitted curve in the direction sought with a large enough effect; inconclusive = small, poorly fitted or top-dose-only effect, or another doubt; inactive = no such curve, though single readings can be large; an effect the other way counts as inactive or inconclusive. Potency is the fitted concentration of half-maximal effect.

SMILES	RE007 growth inh	Cruzain noTriton	Lassa entry inh	Cruzain Triton	NS1 function inh	MARV entry inh	SARS PLP yeast	StopGo reporter
CCCNS(=O)(=O)c1ccc(OCC(=O)NCCCOC)cc1	5%	5%	-6%	1.0%	7%	5%	-1%	16%
Cc1ccc(SCC(=O)NC(=O)NC(C)C)c(C)c1	5%	x	1%	x	x	9%[46.1 µM]	-3%	-12%
O=C(NCCc1ccccc1)C1CCC(CNS(=O)(=O)c2cccc3cccnc23)CC1 (stereo unspecified)	3%	x	-21%	x	-4%	-25%[46.1 µM]	0%	18%
CC(=O)Oc1cccc(C(=O)Nc2ccccc2C(=O)N2CCCC2)c1	-21%	x	2%	x	0%	3%	26%	-24%
CC(C)Cn1nc(NS(=O)(=O)c2ccccc2)c2cc3ccccc3nc21	14%[3.69 µM]	-20%	4%	1.1%	-2%	6%	2%	41%[activator]
COc1ccc(-c2cc(C(=O)N/N=C/c3cccnc3)c3ccccc3n2)c(OC)c1	3%	x	u	x	x	u	x	-11%
Cc1cc(C(=O)O)c(CSCc2cc(C(=O)O)oc2C)o1	-2%	0%	16%	11%	-2%	4%	-3%	x
Cc1ccc2nc(SC(C)C(=O)NCc3ccc4c(c3)OCO4)[nH]c2c1 (stereo unspecified)	7%	15%	-11%	u	-3%	-1%[46.1 µM]	-2%	-13%
Cc1cccc(NC(=O)C2SC(=Nc3c(C)cccc3C)C(C(=O)N3CCOCC3)=C2N)c1 (stereo unspecified)	-11%	u	u	-5.3%	7%	u	21%	24%
O=C(CC1N=C2c3ccccc3N=C(SCc3ccccc3Cl)N2C1=O)NCc1cccs1 (stereo unspecified)	x	-2%	-8%[46.1 µM]	-4.5%	x	x	x	-3%
Cn1cc(/C=C2/SC(=O)N(c3ccccc3)C2=O)c2ccccc21	9%	u	12%	1.0%	15%	u	2%	34%[activator]
O=C(Nc1nc(-c2ccc(Br)cc2)ns1)c1ccc(F)cc1	x	1%	-2%[46.1 µM]	-1.4%	x	11%[46.1 µM]	x	-28%
COc1cc2c(cc1OC)CN(C(=O)CCOc1ccccc1C)CC2	3%	x	u	x	-15%	u	1%	-28%
COc1ccc(CCN(C)CC(=O)Nc2ccc(F)c(Cl)c2)cc1OC	-13%	x	-20%[46.1 µM]	x	u	u	5%	-21%
Cc1ccc(C(=O)NC2CCN(C(=O)Nc3ccc(F)cc3)CC2)cc1	-6%	x	1%[46.1 µM]	x	-5%	7%[46.1 µM]	-1%	0%
O=C(CSc1n[nH]c(-c2cccs2)n1)NCCc1ccccc1	2%	x	5%	x	x	18%	2%	-5%
Cc1oc2cc(O)ccc2c(=O)c1N1C(=O)c2ccccc2C1=O	-1%	1%	15%	1.3%	2%	-27%	-6%	-3%
CN1CCN(C(=O)C2=C[C@H](c3coc4ccccc4c3=O)C[C@H](OCc3ccc(CO)cc3)O2)CC1	11%	x	x	x	5%	x	0%	1%
COc1ccc(C(=O)Nn2c(C)nc3ccccc3c2=O)cc1[N+](=O)[O-]	0%	x	x	x	2%	x	1%	-22%
O=C(Nc1nccs1)C1CCN(S(=O)(=O)c2ccc3c(c2)OCCCO3)CC1	15%	-14%	-11%	-0.3%	-9%	-12%	5%	-7%
Cc1ccc(C(=O)N2CC(=O)Nc3ccc(F)cc3C2c2ccc(F)cc2)cc1 (stereo unspecified)	-10%	x	2%[46.1 µM]	x	5%	u	-1%	0%
O=c1c2ccccc2nc(SCc2cc(=O)n3ccsc3n2)n1CCCO	x	3%	x	-1.6%	5%	1%	-2%	x
CC1=N/C(=C\c2ccc([N+](=O)[O-])cc2)C(=O)N1c1ccc(Cl)cc1	-5%	16µM*	12%	0.8%	30%	-13%	-8%	x
COC(=O)CSc1nnc(C)c(=O)[nH]1	-6%	11%	12%	-0.7%	9%	4%&4%	u	-7%
COc1ccc(C(=O)CN2CCN(S(=O)(=O)c3ccc(F)cc3)CC2)cc1	x	-5%	u	-1.3%	x	x	x	0%
Cc1ccc(NC(=O)COC(=O)c2cccc(N3C(=O)c4ccccc4C3=O)c2)cc1	2%	x	x	x	0%	x	1%	19%
c1ccc2c(c1)nc(N1CCN(C3CCCCC3)CC1)c1nnnn12	x	-10%	x	-1.9%	-3%	x	0%	x
CCc1ccc2c(c1)C(c1ccc([N+](=O)[O-])cc1)=NNC(c1ccc(Br)cc1)=N2	-1%	10µM*	2%	-4.1%	8%	0%	-7%	-21%
Cc1c(NC(=O)c2ccc(Cl)cc2)cc(C(C)C)c(O)c1S(=O)(=O)c1ccc(Cl)cc1	x	32µM*	1%[46.1 µM]	0.1%	x	u	x	39%[activator]
CCc1ccc(-c2cc(C)no2)cc1S(=O)(=O)N1CCN(c2cc(C)ccc2C)CC1	2%	x	-16%[46.1 µM]	x	20%	u	0%	u
COc1cc(Cl)c(C)cc1Nc1nc2ccccc2c2nnc(C)n12	x	3%	-1%[46.1 µM]	0.5%	x	x	x	-6%
O=C(COC(=O)c1ccccc1)Nc1cccc(S(=O)(=O)N2CCCCC2)c1	7%	x	21%	x	x	28%	-3%	0%
N#Cc1ccccc1S(=O)(=O)N1CCN(C(=O)CN2CCCSc3ccccc32)CC1	4%	x	-30%	x	x	5%	11%	-4%
COc1ccc(/C=N\N=C2/SC(CC(=O)O)C(=O)N2c2ccc(O)cc2)cc1OC (stereo unspecified)	7%	7%	-8%	-7.4%	7%	3%	1%	-14%
Cc1cc([N+](=O)[O-])ccc1NC(=O)CCC(=O)N1CCCCCC1	-2%	x	12%[46.1 µM]	x	2%	5%[46.1 µM]	-4%	-6%
c1ccc(Cn2nnnc2C(c2cccs2)N2CCSCC2)cc1 (stereo unspecified)	-8%	-1%	u	-0.8%	-9%	u	4%	15%
Cc1cc(C(=O)COc2ccc(-c3nnco3)cc2)c(C)n1Cc1ccccc1	-4%	16µM*	u	2.7%	-1%	u	5%	u
Cc1cc(C)cc(-n2ncc3c2CCCC3NC(=O)c2cc(C)oc2C)c1 (stereo unspecified)	7%	x	u	x	-3%	u	-38%	-25%
Cn1c(NCc2cccnc2)nc2c1c(=O)n(Cc1ccccc1F)c(=O)n2C	-11%	1%	-11%	3.7%	5%	-20%	-1%	u
COc1ccc(-n2cnnc2)cc1	5%	-3%	6%	-0.8%	-12%	2%	5%	-9%

An excerpt from the list above, as a working copy:
SMILES	RE007 growth inh	Cruzain noTriton	Lassa entry inh	Cruzain Triton	NS1 function inh	MARV entry inh	SARS PLP yeast	StopGo reporter
COc1cc(Cl)c(C)cc1Nc1nc2ccccc2c2nnc(C)n12	x	3%	-1%[46.1 µM]	0.5%	x	x	x	-6%
O=C(COC(=O)c1ccccc1)Nc1cccc(S(=O)(=O)N2CCCCC2)c1	7%	x	21%	x	x	28%	-3%	0%
N#Cc1ccccc1S(=O)(=O)N1CCN(C(=O)CN2CCCSc3ccccc32)CC1	4%	x	-30%	x	x	5%	11%	-4%

Next section
SMILES	RE007 growth inh	Cruzain noTriton	Lassa entry inh	Cruzain Triton	NS1 function inh	MARV entry inh	SARS PLP yeast	StopGo reporter
CC(NC(=O)Cn1nc(-c2ccccc2)c2ccccc2c1=O)c1ccccc1 (stereo unspecified)	-11%	-3%	-28%	0.5%	14%	-18%	0%	0%
COc1ccc(NC(=O)c2cc3c(=O)n(Cc4ccco4)ccc3nc2C)cc1	x	-10%	u	-5.0%	x	x	x	-7%
CCCN1Cc2cccc(C(=O)NC(CC(=O)OCC)c3ccc(OC(C)C)cc3)c2C1=O (stereo unspecified)	-15%	x	u	x	x	u	-4%	-3%
O=C(CNC(=O)c1ccc2c(c1)OCCO2)N/N=C/c1ccc(Cl)cc1	-4%	x	15%	x	x	-5%	-4%	-4%
O=C(Cc1ccsc1)NCC(c1ccco1)N1CCCCC1 (stereo unspecified)	14%	9%	-12%	1.2%	1%	-9%[46.1 µM]	-7%	-4%
CC(=O)C1=C(C)NC(=S)NC1c1cc([N+](=O)[O-])ccc1O (stereo unspecified)	-14%	x	x	x	3%	x	1%	-19%
COc1ccc(S(=O)(=O)N(c2onc(C)c2Cl)S(=O)(=O)c2ccc(OC)c(OC)c2)cc1OC	13%	-4%	4%	1.2%	15%	-2%	10%	12%
COc1ccccc1CNC(=O)C(=O)NCC1OCCCN1S(=O)(=O)c1ccc(F)cc1C (stereo unspecified)	-1%	x	4%	x	2%	-23%	-7%	-9%
CC(C)OCCCNc1nc2c(-c3ccccc3)nnn2c2ccccc12	x	-4%	0%	-9.2%	u	9%	11%	x
CCC(=O)Nc1ccc(C(=O)NCc2ccccn2)cc1	-6%	x	6%	x	0%	-6%	0%	2%
Cc1c(C(=O)N2CC(C)OC(C)C2)sc2nc(-c3ccccc3)cn12 (stereo unspecified)	x	0%	x	2.0%	-12%	4%	9%	x
CCCCN1CCc2nc(Nc3ccc(OC)cc3OC)ncc2C1	x	-4%	-11%[46.1 µM]	-0.8%	x	x	x	-12%
Cc1ccc(CNC(=O)CCc2c(C)c3ccc(O)c(C)c3oc2=O)cc1	x	-12%	-15%[46.1 µM]	-4.3%	x	-2%[46.1 µM]	x	17%
OCC1(CCCc2ccccc2)CCN(C2CCSCC2)CC1	-18%	x	-6%	x	-1%	u	2%	-6%
COc1cccc(C(=O)Nc2nnc(S(=O)(=O)N3CCOCC3)s2)c1	-8%	12%	19%[46.1 µM]	-1.3%	-11%	x	0%	7%&3%
CC(C)C(=O)N1c2nc(C(C)C)nn2C2(CCCCC2)[C@@H]2CCCC[C@@H]21	x	-29%	2%[46.1 µM]	-1.5%	x	-8%[46.1 µM]	x	u
CC(C)N1CCN(Cc2ccc(C#CCCO)cc2)CC1CCO (stereo unspecified)	0%	x	x	x	1%	x	1%	-3%
